High-throughput results: PubChem, PCMD
Biofilm kill mix = mixture kills Candida albicans biofilm cells | C. albicans biofilm persisters + clotrimazole, fluorescence viability; primary screen in compound mixtures of four per well | inhibition, % at 7.6 µM | actives 0.02% (n = 120,000);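 active means inhibition above 30.3% in the primary screen of four-compound pools, then above 30% when the compound was retested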;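 further: compounds exposed to preformed 24 h biofilms for 48 h; the number belongs to the whole pool; some results filed as inactive read as strong as hits; inactives centre near 12; 0% = biofilm with clotrimazole alone and 100% = kill control; retested singly at about 60 µM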
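Probe or stimulus – Clotrimazole 50 µg/mL co-treatment · System – C. albicans biofilms · Schedule – 24 h biofilm formation, then 48 h compound exposure, 37 °C · Evaluation – percent inhibition of biofilm viability · Technique – 2-h Alamar Blue fluorescence, 535/590 nm excitation/emission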
Active calls of the source: *. Some of the compounds tested; count on the stated rates, not on these rows.

compound | Biofilm kill mix
CCC(C(=O)NCc1cccnc1)c1ccccc1 (stereo unspecified) | 19
COc1ccc(/C=C2\COc3ccccc3C2=O)cc1OC | 8
COC(=O)c1c(Oc2nc(OC)cc(OC)n2)cccc1Oc1nc(OC)cc(OC)n1 | 4
CC(=O)Nc1ccc(S(=O)(=O)N2CCN(c3nnnn3-c3ccccc3)CC2)cc1 | 12
CCCN1CNC(=S)N(c2ccccc2C)C1 | 16
Cc1ccc(Nc2nc(=O)c3cc([N+](=O)[O-])ccc3s2)cc1 | 17
COc1ccc(CN=C2NC(=O)CC(C(=O)Nc3ccc(Cl)cc3)S2)cc1 (stereo unspecified) | 7
COc1ccc(C(CNC(=O)/C=C/c2c(Cl)nc3ccccn23)N(C)C)cc1 (stereo unspecified) | 8
O=C(NNS(=O)(=O)c1cccc(Cl)c1)c1cc(-c2ccc(F)cc2)nc2ccccc12 | 15
CC(=O)/C(N=Nc1ccc(C(=O)O)cc1[N+](=O)[O-])=C(\C)O | 8
CCn1c(C)nc2cc(C(=O)OC)ccc21 | 1
CCCCOC(=O)CSCC(=O)N1N=C(c2cccs2)CC1c1ccc(F)cc1 (stereo unspecified) | 18
CCOC(=O)c1c(C)oc2c1c1c(c3ccccc32)OCN(CCCC(=O)O)C1 | 14
Cc1occc1C(=O)NNC(=O)c1ccccc1Br | 6
CS(=O)(=O)N1CCC(Oc2ccccc2C(=O)NC2CCOC2)CC1 (stereo unspecified) | -1
CC1=NCCN1S(=O)(=O)c1c(C(C)C)cc(C(C)C)cc1C(C)C | 0
CCCNC(=O)N1CCN(c2ncccn2)CC1 | 9
COc1ccc(-c2cn3ccccc3n2)cc1 | 9
COc1ccc(C(=O)Nc2cccc(/C=C(\CCC(=O)O)c3nc4ccccc4s3)c2)cc1 | 15
CC1CN(c2nc3ccccn3c(=O)c2/C=C(\C#N)C(=O)N2CCOCC2)CC(C)O1 (stereo unspecified) | 6
Cc1cc(OCC(=O)OCC(=O)Nc2cc(C(F)(F)F)ccc2N2CCOCC2)ccc1Cl | 19
CCCNC(=O)c1cccc(COCC(F)(F)F)c1 | 7
O=C(c1ccc(N2CCCC2)c([N+](=O)[O-])c1)N1CCN(CCO)CC1 | 10
COc1cc(NC(=S)N2CCN(Cc3ccccc3)CC2)cc(OC)c1 | 10
COc1ccc(C(C(=O)NC2CCCCC2)N(C(=O)CCl)c2ccc(OC)cc2)cc1 (stereo unspecified) | 15
Cc1cc(C)c(Cn2cnc3ccccc32)c(C)c1 | 15
Cc1cccc(NCc2n[nH]c(=S)n2-c2ccccc2)c1 | 23
CC(=O)Nc1sc(C)c(C)c1C(=O)OCC(=O)N(C)C1CCS(=O)(=O)C1 (stereo unspecified) | 20
CCN(CCS(=O)(=O)c1ccc(Cl)cc1)C(=O)Nc1ccc(Cl)cc1 | -5
Cc1cc(C)nc(SCCn2c(N3CCOCC3)nc3c2c(=O)[nH]c(=O)n3C)n1 | 13
Cc1ccc(-c2ccc(C(=O)O)o2)cc1Cl | 17
COc1ccc(NC(C)C(=O)Nc2cc(C(F)(F)F)ccc2N2CCOCC2)c(OC)c1 (stereo unspecified) | 10
C/C(=N\NC(=O)C(=O)Nc1ccc(C)c(Cl)c1)c1ccncc1 | 5
CC(=O)/C(=N\Nc1cccc(Cl)c1)Sc1cccc2cccnc12 | 10
C/C(=N\NC(=O)c1cccc([N+](=O)[O-])c1)c1ccco1 | 20
COc1ccc2cc(Br)ccc2c1CC(=O)N(C)C | 0
CCC(Sc1ncccc1C(=O)Oc1cccc([N+](=O)[O-])c1)C(=O)Nc1ccccc1OC (stereo unspecified) | 20
Cc1ccc(C(=O)Nc2cccc([N+](=O)[O-])c2)cc1S(=O)(=O)Nc1cccc(C(=O)O)c1 | 15
CSCCOC(=O)COc1ccc(/C=N/NC(=O)c2nn(C)cc2Cl)cc1 | 14
Cc1ccc(Nc2nnc(-c3ccc4c(c3)OCO4)o2)c(C)c1 | 14
CCOC(=O)C1(Cc2ccccc2)CCCN(CCO)C1 (stereo unspecified) | 21
Clc1ccc(C2[C@H]3CN(CC4CCCCC4)[C@H](c4ccccc4)C34CC2(c2cccnc2)C4)cn1 (stereo partly specified) | 13
CC(Sc1nc(C(C)(C)C)cc(-c2ccccc2)c1C#N)C(=O)Nc1ccccc1 (stereo unspecified) | 21
NNc1nc(N)c2c(n1)-c1ccccc1CC21CCCC1 | 25
N#Cc1ccc(S(=O)(=O)NC2CCN(Cc3ccccc3)CC2)cc1 | 15
COc1ccc(CN2CC(C(=O)NCCCN3CCN(Cc4ccccc4)CC3)CC2=O)cc1 (stereo unspecified) | 11
CCOC(=O)CCCNC(=O)COC(=O)c1cc(Br)c(Br)s1 | 12
CCOC(=O)C(=CNc1ccc(C#N)cc1)C(=O)OCC | -8
CCC(=O)Nc1ccc2c(c1)nc(CN1CCCCC1)n2C | 32
C=C(C)CNC(=S)N1CCN(C(c2ccccc2)c2ccccc2)CC1 | 5

Following part.
compound | Biofilm kill mix
NC(=O)c1ccccc1N=Cc1ccc2ccccc2c1 | 10
Cc1cc(C)nc(N/N=C/c2sccc2C)n1 | 16
COC(=O)c1cc(C(=O)OC)n(Cc2ccc(C)cc2)c1C | 14
Cc1cc(C)nc(N/N=C/c2ccc3c(c2)OCCO3)n1 | 10
COc1cc(/C=N/NC(N)=O)ccc1OCC(=O)Nc1ccc(C)c(C)c1 | 12
O=C(COC(=O)c1ccc(Cl)nc1)NCc1ccc2c(c1)OCO2 | 17
Cc1c(-c2ccccc2)oc2c(C(=O)OCC(=O)Nc3ccc(C(N)=O)cc3)cccc2c1=O | 9
CCn1c(=NC(=O)COc2ccccc2)sc2cccc(F)c21 | 22
COc1ccc(N2CC(C(=O)N/N=C/c3ccc(C)cc3)CC2=O)cc1 (stereo unspecified) | 19
CNC(=O)CN1C(=O)NC(Cc2c[nH]c3ccccc23)C1=O (stereo unspecified) | 30
Cc1ccc(NC(=O)c2cc(C(=O)c3cc(Cl)ccc3O)cn(-c3ccc(C)cc3)c2=O)cc1 | 17
COC(C#CCCN(C)C)(c1ccccc1)c1ccccc1 | 13
CCOC(=O)CNC(=O)c1sc(NC(=O)c2ccccc2)nc1C | 13
CC(C)c1nc(SCC(=O)c2ccc(F)cc2)c2ccccc2n1 | -4
NC(=O)C1=C[C@H](c2ccc(Br)cc2)C[C@H](OCc2ccc(CO)cc2)O1 | 13
O=C(NC(=S)Nc1cccc(S(=O)(=O)NC2=NCCC2)c1)c1cc(-c2ccco2)nc2ccccc12 | 25
O=C(Nc1cc(S(=O)(=O)N2CCOCC2)ccc1N1CCCCC1)c1cc(-c2ccccn2)nc2ccccc12 | 3
c1ccc(Oc2cc(-n3cncn3)ncn2)cc1 | 9
Cc1ncc([N+](=O)[O-])n1CCOC(=O)NC(Nc1ccc(F)cc1)C(Cl)(Cl)Cl (stereo unspecified) | 10
Clc1ccc(-n2nnnc2-c2cnc3ccccc3c2-c2ccccc2)cc1 | 10
CCc1nc2ccccc2nc1N1CCN(S(=O)(=O)c2ccc(Cl)cc2)CC1 | 15
NC(N)=N/N=C/c1ccc(Cl)cc1Cl | 17
O=C(NCc1ccncc1)C(=O)NCC(c1ccco1)N1CCN(c2ccccc2F)CC1 (stereo unspecified) | 12
COC(=O)C1=C(C)NC(=S)N(C(C)=O)C1c1ccccc1 (stereo unspecified) | 6
N/C(=N\OC(=O)c1ccc2ccccc2c1)c1ccc(Br)cc1 | 7
CCc1nc(SCc2ccc(Cl)cc2)n[nH]1 | 16
Cc1ccc(C(=O)/C=C/N(C)C)o1 | 7
CC(=O)Nc1ccc(-c2csc(NNC(=O)c3ccc(C)cc3)n2)cc1 | 18
CC(=O)c1cnn(-c2c(Cl)cc(Cl)cc2Cl)c1C | 20
COc1ccc(CCNC(=O)COC(=O)c2cc(OC)c(OC)cc2OC)cc1OC | 9

Looked up by structure from the entries so far:
compound | Biofilm kill mix
CC(=O)c1cnn(-c2c(Cl)cc(Cl)cc2Cl)c1C | 20
COC(=O)C1=C(C)NC(=S)N(C(C)=O)C1c1ccccc1 (stereo unspecified) | 6
N/C(=N\OC(=O)c1ccc2ccccc2c1)c1ccc(Br)cc1 | 7
Cc1ccc(C(=O)/C=C/N(C)C)o1 | 7
COc1ccc(CCNC(=O)COC(=O)c2cc(OC)c(OC)cc2OC)cc1OC | 9
NC(N)=N/N=C/c1ccc(Cl)cc1Cl | 17

In the list so far, 3 have two or more sulfur atoms:
compound | Biofilm kill mix
CCCCOC(=O)CSCC(=O)N1N=C(c2cccs2)CC1c1ccc(F)cc1 (stereo unspecified) | 18
CC(=O)Nc1sc(C)c(C)c1C(=O)OCC(=O)N(C)C1CCS(=O)(=O)C1 (stereo unspecified) | 20
O=C(NC(=S)Nc1cccc(S(=O)(=O)NC2=NCCC2)c1)c1cc(-c2ccco2)nc2ccccc12 | 25

Later entries.
compound | Biofilm kill mix
O=C(/C=C/c1ccco1)NCc1ccccn1 | 14
CC1(c2nnc(-c3ccc(Cl)cc3)o2)CC(c2ccc([N+](=O)[O-])cc2)=NO1 (stereo unspecified) | 13
O=S1(=O)NC(=NCCOCCO)c2ccccc21 | 11
O=C(COC(=O)C1CC1)Nc1ncc(C(F)(F)F)cc1Cl | 14
O=C(CCCN1C(=O)c2cccc3cccc(c23)C1=O)NC1CCS(=O)(=O)C1 (stereo unspecified) | 3
Cc1cc2nc(C)c(=O)n(C)c2cc1C | 1
O=C(NCCCCCCNC(=O)c1ccc(Br)s1)c1ccc(Br)s1 | 15
O=C1OC(c2ccccc2)c2ccccc21 (stereo unspecified) | 9
O=C(O)CNc1nc(-c2ccccc2)nc2c1oc1ccccc12 | 13
CC(C)CN1CCNC(=O)C1CC(=O)NCc1cnn(-c2cccc(F)c2)c1 (stereo unspecified) | 6
N=C1/C(=C/c2cccn2Cc2ccc(F)cc2)C(=O)N=C2SC=CN12 | 11
O=C(C1=NN[C@@H]2C(=O)N(c3cccc(F)c3)C(=O)[C@H]12)c1cnccn1 | 21
O=C(O)c1ccc(-c2ccccn2)s1 | -2
O=C(/C=C/c1ccc2c(c1)OCCO2)c1ccccc1 | 23
Nn1c(SCCOc2ccccc2)nnc1-c1cccnc1 | 8
C/C(N)=C(/C#N)C(=O)COC(=O)c1cc(-c2ccccc2)nc2ccc(Br)cc12 | 20
Clc1nc(CN2CCOCC2)nc2sc3c(c12)CCC3 | 16
Cc1cc(NS(=O)(=O)c2ccc(NC(=S)NC(=O)c3ccncc3)cc2)no1 | 19
Cc1ccccc1NC(=S)N/N=C/c1ccc(O)cc1O | 14
CC1CCc2c(sc(NC(=O)C3CCCO3)c2C#N)C1 (stereo unspecified) | 10
O=C(NCc1nnc(SCC(=O)N2CCCc3ccccc32)o1)c1ccco1 | 21
COc1ccccc1OCCNC(=O)Cc1ccc(Cl)c(Cl)c1 | 7
NC(=O)C1CCN(C(=O)c2ccc(Oc3cc(Cl)cc(Cl)c3)o2)CC1 | 8
C#CCNC(=O)C1=C[C@H](c2ccc(Br)cc2)C[C@H](OCCCCO)O1 | 11
CC(=O)Oc1ccc(C(=O)[C@H]2[C@H]3C(=O)N(c4ccccc4)C(=O)[C@H]3[C@@H]3C=CC=NN32)cc1 | 9
CN1C(=O)/C(=C/c2ccc(O)c([N+](=O)[O-])c2)N(C)C1=S | 6
C=CCn1c(SCC(=O)c2ccc(O)c(O)c2)nnc1-c1cccnc1 | 14
Cc1ccccc1C(=O)N1CCC(C(=O)Nc2nccs2)CC1 | 12
CCCOc1ccc(NC(=O)C2CC(=O)N(C)C(=Nc3cccc(OC)c3)S2)cc1 (stereo unspecified) | 12
CCCCCCC(C)NC(=S)Nc1cc(S(=O)(=O)N(C)C)ccc1C (stereo unspecified) | 7
Nn1c(SCc2ccc(Br)cc2)nnc1-c1ccccn1 | 9
COc1ccc(-c2c(NC(=O)c3ccco3)n(-c3ccc(C)cc3)nc(C)c2=O)cc1 | 8
O=C(NCC(=O)N(c1cccc(F)c1)C(C(=O)NC1CCCC1)c1cccnc1)c1cccs1 (stereo unspecified) | 16
N=C(N)N=Nc1c(O)[nH]c2ccc(Br)cc12 | 19
O=C(Nc1ccc(S(=O)(=O)Nc2nccs2)cc1)C1=NN(c2ccccc2)C(=O)CC1 | 25
CCOC(=O)c1c(/N=C/c2ccccc2O)sc2c1CCC2 | -5
CCOc1ccc(CC(=O)N/N=C/c2cccnc2)cc1 | 18
CCOC(=O)c1c(NC(=S)Nc2cccc(C)c2)sc2c1CC(C)(C)SC2 | 19
Cc1cc(C)c2c(C)[nH]nc2n1 | 17
Cc1cc(NC(=O)/C=C\C(=O)O)c([N+](=O)[O-])cc1C | 14
O=C(CCN=C1NS(=O)(=O)c2ccccc21)N1CCc2ccccc2C1 | 15
C#CCOCCOCCOCCNc1nc(N2CCN(C(=O)[C@H](Cc3ccc(O)cc3)n3cc([C@@H](N)CC(C)C)nn3)CC2)nc(N2CCN(C(=O)[C@H](Cc3cc4ccccc4[nH]3)n3cc([C@@H](N)CC(C)C)nn3)CC2)n1 | 12
COc1ccc(OC)c(NC(=O)c2cc3c(=O)n4ccccc4nc3n2C)c1 | 6
O=C(Cc1ccccc1)c1nc2ccccc2s1 | 20
O=[N+]([O-])c1cc(C(F)(F)F)ccc1NN=C1CCCC1 | 10
O=C(/C=C/c1ccc(F)cc1)NC(=S)N1CCN(c2ccccn2)CC1 | 32
